KCNQ2 pot: KCNQ2 (rat) channel potentiation | O88943 | hit rate 0.54% among 310,000 | CHO-K1 KCNQ2, FluxOR thallium flux fluorescence; hits give high values | B-score at 10 µM;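 active = fluorescence ratio B-score at least 3 SD of library B-scores, with initial fluorescence B-score within 3 SD, cut at about 5.3 in these data; same plate scores as AID 2156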;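 note: B-score of peak minus minimum over baseline fluorescence ratio after K+ and Tl+ stimulus; positive B-score means potentiation of KCNQ2 with more thallium influx and brighter signal; only the inactives scoring about 0 or higher are listed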
Target sequence (O88943 whole entry, looked up): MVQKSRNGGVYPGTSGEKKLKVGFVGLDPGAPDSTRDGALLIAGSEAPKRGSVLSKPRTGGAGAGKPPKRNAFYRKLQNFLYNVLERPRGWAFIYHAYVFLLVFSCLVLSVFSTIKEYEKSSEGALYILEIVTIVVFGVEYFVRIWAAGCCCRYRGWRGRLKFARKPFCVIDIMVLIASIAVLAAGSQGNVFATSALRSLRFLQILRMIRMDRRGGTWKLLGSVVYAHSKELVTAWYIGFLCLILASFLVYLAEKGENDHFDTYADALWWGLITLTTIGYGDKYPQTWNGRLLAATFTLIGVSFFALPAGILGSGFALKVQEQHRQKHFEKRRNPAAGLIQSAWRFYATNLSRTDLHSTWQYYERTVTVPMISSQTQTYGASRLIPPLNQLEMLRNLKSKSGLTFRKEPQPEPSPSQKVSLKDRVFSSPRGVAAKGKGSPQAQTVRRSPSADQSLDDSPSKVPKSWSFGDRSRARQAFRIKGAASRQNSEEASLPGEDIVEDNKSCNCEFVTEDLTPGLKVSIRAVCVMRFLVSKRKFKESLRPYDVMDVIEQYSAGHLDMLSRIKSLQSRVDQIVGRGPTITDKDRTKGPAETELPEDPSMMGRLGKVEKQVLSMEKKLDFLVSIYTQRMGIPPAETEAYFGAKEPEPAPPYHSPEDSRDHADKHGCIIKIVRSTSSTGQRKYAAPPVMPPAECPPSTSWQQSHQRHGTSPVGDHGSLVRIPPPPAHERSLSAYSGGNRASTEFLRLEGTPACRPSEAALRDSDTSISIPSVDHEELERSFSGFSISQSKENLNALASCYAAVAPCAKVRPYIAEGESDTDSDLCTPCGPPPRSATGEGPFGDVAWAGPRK
KCNQ2 pot baseline: second read-out of KCNQ2 pot, no call of its own (marks repeat the call); B-score; compound at 10 µM; measured here: initial fluorescence intensity artifact check;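 brightness before thallium and not channel activity; 0 = typical well and far values either way flag optical interference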
* marks the source's active call; other numbers are inactive results; / = not tested or not shown. An excerpt; the hit share may differ from the screen's.

molecule | KCNQ2 pot baseline | KCNQ2 pot
CCOC(=O)N1CCN(S(=O)(=O)N2CCCC(C(=O)NCCc3ccc(OCC)c(OCC)c3)C2)CC1 (centres undefined) | -0.91 | 1.85
CC(C)(C)c1nn(-c2ccccc2)c2[nH]c(=O)c(CNc3ccc4c(c3)OCCO4)cc12 | 0.67 | 0.99
Cc1ccc(-c2noc(-c3ccccc3C(=O)NCC3CCCO3)n2)cc1 (centres undefined) | 0.15 | 0.64
COc1ccc(N(CC(=O)NCc2ccccc2)S(=O)(=O)c2c(C)nn(C)c2C)cc1 | -0.03 | 1.61
CCCCc1c(O)nc(SCC(=O)Nc2ccc(C)cc2)n(-c2ccc(OC)cc2)c1=O | -1.92 | 0.38
CN1CCN(S(=O)(=O)c2cccc(C(=O)NCc3ccc(Cl)cc3)c2)CC1 | -2.69 | 0.01
O=C(CSCc1ccccc1)Nc1ccccc1C(=O)Nc1ccc(C(=O)O)cc1 | -2.27 | 0.06
CN(C)S(=O)(=O)c1ccc(C(=O)OCC(=O)Nc2ccc(OC(F)F)cc2)cc1 | 0.19 | 1.12
COc1cccc(-c2nnc(-c3ccc(C)o3)o2)c1 | -1.66 | 1.82
CC1Cc2nc(SCC(=O)Nc3ccc4c(c3)OCO4)n(Cc3ccccc3)c(=O)c2S1 (centres undefined) | 0.01 | 0.87
COc1ccc(N(C(=O)CNC(=O)c2ccco2)C(C(=O)NC2CCCC2)c2ccncc2)cc1 (centres undefined) | -0.61 | 0.26
CN1CCN(C(=O)c2ccccc2NC(=O)c2cccc(Cl)c2)CC1 | -0.09 | 2.28
COc1ccc(NC(=O)/C(=C/c2cccs2)NC(=O)c2ccco2)cc1 | 0.62 | 0.42
Cc1cc(C)c(C(=O)C2OC(=O)C(C)(C)C(=O)C2(C)C)c(C)c1 (centres undefined) | -0.37* | 10*
Cc1cccc(N(C)S(=O)(=O)c2nnc(NC(=O)c3ccco3)s2)c1 | -1.12 | 1.87

New compounds follow.
molecule | KCNQ2 pot baseline | KCNQ2 pot
CCOC(=O)C1CCN(Cc2ccc(OC)c(C)c2OC)CC1 | 0.68 | 0.52
O=C(CSc1nc2ccccc2s1)CSc1nc2ccccc2s1 | 0.55 | 0.02
Cc1cc2nncn2c(Cc2ccccc2)n1 | -2.31 | 0.03
Cc1ccc(NC(=O)CN(C)C(=O)c2nn(C)c(=O)c3ccccc23)cc1 | -0.87 | 1.98
CC(/C=C1\SC(=S)N(CCC(=O)Nc2ccc(O)cc2)C1=O)=C\c1ccccc1 | 0.12 | 0.24
CCCc1nc2oc3c(NCC(C)O)ncnc3c2c2c1CCCC2 (centres undefined) | -0.22 | 1.64
CCC(C(=O)NC1CCCCCC1)n1nc(C)c2c(C)n(-c3ccccc3)nc2c1=O (centres undefined) | -1.07 | 1.17
CCn1c(=O)cc(OCC(=O)NCc2ccc(C)o2)c2ccccc21 | -1.15 | 0.04
CCCCc1nnc(NC(=O)c2ccccc2OCc2c(C)noc2C)s1 | 2.2 | 0.27
COc1ccc(OS(=O)(=O)c2ccc(N3C(=O)CCC3=O)cc2)cc1 | -0.01 | 0.92
CC(C)NC(=O)Nc1n[nH]c(Nc2ccc(Cl)cc2)n1 | 0.4* | 5.61*
Cc1cc(NC(=O)Cc2ccsc2)ccc1Br | -0.07 | 0.93
COc1ccc(OCc2cc(C(=O)NC(C)Cc3ccccn3)no2)c(Cl)c1 (centres undefined) | -1.48 | 0.02
CS(=O)(=O)c1ccccc1C(=O)N(CCc1ccccc1)Cc1ccccc1 | / | -5.6
CCCn1ncc(CN2CCN(Cc3ccc(C)o3)C(CCO)C2)c1C (centres undefined) | 0.52 | 1.09

In the list so far, these contain two or more sulfur atoms.
molecule | KCNQ2 pot baseline | KCNQ2 pot
CC1Cc2nc(SCC(=O)Nc3ccc4c(c3)OCO4)n(Cc3ccccc3)c(=O)c2S1 (centres undefined) | 0.01 | 0.87
Cc1cccc(N(C)S(=O)(=O)c2nnc(NC(=O)c3ccco3)s2)c1 | -1.12 | 1.87
O=C(CSc1nc2ccccc2s1)CSc1nc2ccccc2s1 | 0.55 | 0.02
CC(/C=C1\SC(=S)N(CCC(=O)Nc2ccc(O)cc2)C1=O)=C\c1ccccc1 | 0.12 | 0.24

Continuation.
molecule | KCNQ2 pot baseline | KCNQ2 pot
CC(=O)Nc1ccc(Nc2nnc(-c3ccc(C)c(S(N)(=O)=O)c3)c3ccccc23)cc1 | -1.13 | 2.14
Cc1c(C(=O)NC(C)C)sc2ncn(CC(=O)N3CCC(C)CC3)c(=O)c12 | 0.35 | 0.02
Cc1ccc(NS(=O)(=O)c2cc(C(=O)O)ccc2Cl)cc1 | -0.59 | 1.53
Cc1cccc(N2CCN(c3ccc(NC(=O)/C=C(/C(=O)O)c4ccccc4)cc3)CC2)c1 | 1.73 | 1.77
COc1cccc(/C=N/NC(=O)c2ccc(=O)n(C)c2)c1O | -0.97 | 1.49
CCCc1cc(=O)[nH]c(SCC(=O)OCc2ccccc2)n1 | 1.1 | 0.73
CCOC(=O)c1cn(-c2ccccc2)nc1-c1cccnc1 | -0.07 | 1.8
CCOc1ccccc1CN1CCNC(=O)C1CC(=O)NCc1nc(C)cs1 (centres undefined) | 0.04 | 0.02
O=C(Cn1cc2c(n1)CCCC2)NCCCN1CCCC1 | -1.35 | 0.62
CCn1c(C(=O)O)c(CC(=O)Nc2ccc(Br)cc2C)c2ccccc21 | 0.03 | 0.12
Cc1cc(C)cc(-n2nc(C)cc2N)c1 | -0.36 | 0.14
CCOc1ccc(CCNC(=O)C2(c3ccccc3)CC2)cc1OCC | 0.49 | 1.91
CC(CN1CCCC(C(N)=O)C1)c1ccccc1 (centres undefined) | 1.99 | 0.54
CCOC(=O)COc1nc2ccc(Br)cc2c(-c2ccccc2)c1C(C)=O | -0.38 | 0.32
COc1cc(NC(=O)CN2C(=O)NC(C)(c3ccccc3)C2=O)c(C)cc1[N+](=O)[O-] (centres undefined) | 0.93 | 0.48

Continuation:
molecule | KCNQ2 pot baseline | KCNQ2 pot
COc1cc(S(=O)(=O)NCc2ccncc2)ccc1Br | 1.2 | 1.74
COc1ccc(CCNC(=O)CCC(=O)N2CC(C)Oc3ccc(Cl)cc32)cc1OC (centres undefined) | -1.18 | 1.93
COc1ccc(CCNC(=O)CN(C)S(=O)(=O)c2ccc3nc(C)sc3c2)cc1OC | 0.95 | 0.3
O=C(O)c1cccc(CSc2nnc(Cc3ccccc3)o2)c1 | 0.87 | 0.95
COc1ccc(-n2c(C)c(C)c3c(NCCN(C)C)ncnc32)cc1 | 0.85 | 0.01
O=C(CSc1nc2ncccc2[nH]1)Nc1ccccc1-c1ccccc1 | 0.12 | 0.53
CC(=O)N1CCN=C1SCc1ccc(F)cc1 | 0.08 | 0.14
COc1ccccc1NC1SC(=O)N(c2ccccc2)C1=O (centres undefined) | -1.01 | 0.51
COc1ccc(NC(=O)Nc2cccc(F)c2)c(OC)c1 | 0.51 | 0.68
CCOC(=O)N1CCN(C(=O)COc2ccc(S(=O)(=O)NC3CCCCC3)cc2C)CC1 | 0.08 | 0.98
Cc1ccc(NC(=O)CN(C)C(=O)c2cc(S(=O)(=O)N(C)C)ccc2N2CCCC2)cc1 | 1.08 | 1.07
COc1ccc(C2C(C(=O)NCc3cccnc3)c3cc(OC)c(OC)cc3C(=O)N2C)cc1 (centres undefined) | 0.49 | 0.11
CC1CN(CCCOc2ccccc2[N+](=O)[O-])CC(C)O1 (centres undefined) | -1.99 | 0.09
COc1cccc(OC)c1C(=O)OCCCOC(=O)c1c(OC)cccc1OC | -0.19 | 1.75
COc1ccc(CCN(C)c2ncnc3sccc23)cc1OC | 0.4 | 0.83

Remaining list, next part:
molecule | KCNQ2 pot baseline | KCNQ2 pot
CCN(CC(=O)Nc1ccccc1C(F)(F)F)C(=O)COc1cccc2c1OC(C)(C)C2 | -0.09 | 0.01
O=C(CCN1CCCC1)Nc1ccc(Br)cc1 | 1.22 | 1.13
CC(O)CNc1ccc(-c2n[nH]c(=O)c3ccccc23)cc1[N+](=O)[O-] (centres undefined) | 0.18 | 0.66
CCOC(=O)c1cccc(NC(=O)c2ccco2)c1 | -0.14 | 0.93
Nc1cccc(-c2csc(-n3ncc(C(=O)O)c3C(F)(F)F)n2)c1 | 1.82 | 1.57
COc1ccccc1-c1cc(C(F)(F)F)c(C#N)c(=O)[nH]1 | 0.83 | 1.68
O=C(c1ccc(Cl)nc1)N1CCN(S(=O)(=O)c2ccc(Cl)cc2)CC1 | 1.32 | 0.23
COc1ccc(-c2nnc(SC)o2)c(OC)c1 | 2.66 | 0.01
O=C(NCc1ccco1)c1ccc2c(c1)N(Cc1ccccc1)C(=O)CS2 | -0.61 | 1.71
O=C(Nc1ccccc1C(=O)N1CCCCC1)c1cccs1 | 0.09 | 0.94
Cc1ccc(SCCN2CCN(C)CC2)cc1 | -1.07 | 0.64
CC(C)C(=O)Nc1cccc(C(=O)NCc2ccc(S(N)(=O)=O)cc2)c1 | 1.1 | 0.82
O=C1C(C=NCCCN2CCCC2=O)=C(O)c2ccccc21 | 0.16 | 1.03
Cc1ccc(C)c(S(=O)(=O)NCC(=O)Nc2ccc3c(c2)OCO3)c1 | 0.54 | 0.19
CCN(CC)CCCNC(=S)N(CCO)Cc1cc2cc3c(cc2[nH]c1=O)OCO3 | 0.18 | 0.55

Other compounds
molecule | KCNQ2 pot baseline | KCNQ2 pot
Cc1ccc(N2CC(C(=O)Nc3nnc(SCC(=O)Nc4nc(C)cs4)s3)CC2=O)cc1 (centres undefined) | 0.56 | 0.04
CC(C)(C)n1nnnc1C(c1cccc(C#N)c1)N1CCC(Cc2ccccc2)CC1 (centres undefined) | -0.24 | 0.94
CCOc1ccc(CC(=O)C2C(=O)CC(C)(C)CC2=O)cc1OCC | -2.56 | 0.17
COc1cc(OC)cc(C(=O)Nc2cccc(NC(C)=O)c2)c1 | 0.65 | 2.03
c1ccc(Nc2nc(-c3ccncc3)cs2)nc1 | -1 | 0.6
CS(=O)(=O)N(CC(=O)Nc1ccccc1C(=O)N1CCCC1)c1ccc2c(c1)OCO2 | -1.39 | 0.23
O=C(NCCCNC(=O)c1cccnc1)c1ccc(Cl)cc1 | 0.62 | 1.1
Cc1ccc(S(=O)(=O)C2(C(=O)NCc3ccc4c(c3)OCO4)CC2)cc1 | -0.12 | 0.21
COc1cc(-c2c(C#N)c(N)nc3[nH]c(=S)[nH]c(=O)c23)ccc1O | -0.97 | 0.1
NC(=O)C1CCN(C(=O)Nc2ccccc2)CC1 | -0.42 | 0.07
CCOC(=O)N/N=C/c1ccc(C)o1 | 0.06 | 0.06
COc1cc(SC)ccc1C(=O)OCC(=O)NCC(C)C | -0.01 | 0.9
COC(=O)[C@H]1[C@H](C(=O)OC)[C@@H](C(=O)OC)N(c2ccc(OC)cc2)[C@@H]1C(=O)OC | -0.18 | 0.71
O=C(NC1CCCC1)c1ccc(Cl)s1 | 1.43 | 0.88
COc1ccc(N2CCN(C3CCCN(C(=O)CN4CCOC4=O)C3)CC2)cc1 (centres undefined) | 0.31 | 0.92

Other compounds follow.
molecule | KCNQ2 pot baseline | KCNQ2 pot
Cc1ccc(NC(=O)CNC(=O)OCc2ccccc2)cc1C | 2.65 | 3.56
Cc1ccc(NCC(O)Cn2cnc3c2c(=O)n(C)c(=O)n3C)cc1 (centres undefined) | -3.5 | 0.64
CC(=O)NC(=O)NC1CSCC1OC(C)=O (centres undefined) | 0.7 | 1.49
CCCn1nc2cc(C(=O)NCc3ccc(OC)cc3)ccc2c1OCC | -1.72 | 0.17
Cc1ccc(S(=O)(=O)N2CCN(C(=O)COC(=O)C3CCC3)CC2)cc1 | 1.69 | 1.18
Cc1ccc([N+](=O)[O-])c(OCCN2CCc3ccccc3C2)c1 | 0.03 | 0.96
C/C(=N\NC(=O)CNC(=O)c1ccc(Br)cc1)c1ccco1 | -0.88 | 2.44
COc1ccc(C2Nc3ccccc3C(=O)N2c2ccc(C)cc2)cc1Cn1nnc2ccccc21 (centres undefined) | -1.22 | 0.26
CCN1CCN(Cc2cccc(Oc3ccccc3)c2)CC1 | -0.99 | 0.71
CCN(CC)S(=O)(=O)c1cccc(C(=O)N2CCCCC2)c1 | 0.02 | 2.37
Cc1nn(CC(=O)Nc2ccccn2)c(=O)c2ccccc12 | -0.71 | 0.47
Cc1ccc(OCCn2cc(C(=S)N3CCCC3)c3ccccc32)cc1C | -1.72 | 0.77
Cn1c(=O)[nH]c2nc[nH]c2c1=O | -0.49 | 0.58
N#CC1(NC(=O)COC(=O)c2nc(Cl)ccc2Cl)CCCCC1 | 0.6 | 0.74
O=C(NCC1CCCO1)C(c1ccc(N2CCOCC2)cc1)N(C(=O)Cn1nnc2ccccc21)c1ccccc1F (centres undefined) | 0.52 | 0.44

Other results follow:
molecule | KCNQ2 pot baseline | KCNQ2 pot
CCNC(=S)NNC(=O)c1cc(CC(C)C)nc2ccccc12 | -0.37 | 0.41
CCCCOc1ccc(C(=O)NCCC(=O)NCCCC(=O)OCC)cc1 | 1.05 | 1.15
CC1CCc2c(sc3nn[nH]c(=O)c23)C1 (centres undefined) | 1.39 | 0.14
CCc1ccccc1NC(=O)Nc1cnccn1 | 1.92 | 0.17
CCc1nnc(NC(=O)c2cc(-c3cccnc3)nc3ccccc23)s1 | 3.33 | 1.04
COc1ccccc1-c1cc(C2CC2)nc(N)c1C#N | -0.97 | 0.83
COC(=O)c1nc2n(n1)C(c1cccc(Cl)c1)C1=C(CC(C)(C)CC1=O)N2 (centres undefined) | -0.3 | 1.04
Cc1c(OCC(=O)NC2CCN(Cc3ccccc3)CC2)ccc2c3c(c(=O)oc12)CCC3 | -0.82 | 0.68
Cn1c(Cn2c(=O)sc3ccccc32)nnc1SCC(=O)NCC1CCCO1 (centres undefined) | 0.13 | 0.97
O=C(CN1CCOCC1)NCc1ccccc1Cl | 0 | 0.07
CCCc1cc(=O)[nH]c(SCC(=O)NN(c2ccccc2)c2ccccc2)n1 | 0.9 | 1.15
CCOP(=O)(c1ccc(N(C)C)cc1)C(O)c1ccc(Cl)cc1 (centres undefined) | 0.85 | 0.06
O=C(O)c1ccc(-c2nc(-c3cccc(C(F)(F)F)c3)cs2)cc1 | 0.38 | 2.72
